Cruzain inh Det: qHTS Assay for Promiscuous and Specific Inhibitors of Cruzain (with detergent); Cruzipain (Trypanosoma cruzi), P25779; purified cruzain, Z-FR-AMC fluorescence, 0.01% Triton; Potency, µM, for the others: max response, negative = inhibition, actives largely listed as inhibitors; 200,000 compounds, 0.43% hits; active = well fitted curve in the direction sought with a large enough effect; inconclusive = small, poorly fitted or top-dose-only effect, or another doubt; inactive = no such curve, though single readings can be large; an effect the other way counts as inactive or inconclusive;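 note: plate controls were neutral wells for no effect and buffer without enzyme for full effect; nearly all actives have a fitted effect of over 40% in size; top concentration of the series not given in the record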
Target sequence (P25779 123-467 limits assumed): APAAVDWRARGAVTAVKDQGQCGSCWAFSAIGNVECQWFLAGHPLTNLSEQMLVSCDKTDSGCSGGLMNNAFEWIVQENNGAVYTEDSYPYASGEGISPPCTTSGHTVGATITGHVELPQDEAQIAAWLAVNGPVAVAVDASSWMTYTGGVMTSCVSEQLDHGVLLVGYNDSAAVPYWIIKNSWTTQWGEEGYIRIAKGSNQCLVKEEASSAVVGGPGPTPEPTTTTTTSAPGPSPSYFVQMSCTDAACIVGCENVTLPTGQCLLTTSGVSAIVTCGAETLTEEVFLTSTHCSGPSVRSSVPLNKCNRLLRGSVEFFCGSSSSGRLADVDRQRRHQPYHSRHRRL
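Z-FR-AMC hydrolysis (2 uM substrate) by cruzain (1.5 nM) monitored kinetically at ex 360/em 450 nm after 15 min room-temperature compound exposure; 0.01% Triton X-100, pH 5.5, 5 mM DTT.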
MARV entry inh: qHTS for inhibitors of binding or entry into cells for Marburg Virus | Marburg virus pseudotyped entry inhibition, cell reporter; control for the full effect not named in the record; about a third of the inactives were read at about 46 µM | Potency, µM (titrated, usually from 37.8 µM), inactives show top-dose activity change, negative = inhibition, hits mostly inhibitors | 300,000 compounds, 1.8% hits | AID 540276, 2011; active = well fitted inhibition curve with a large enough effect; inconclusive = small, poorly fitted or top-dose-only effect, or effect the other way; inactive = flat fitted curve, though single readings scatter; tested in HEK293 cells; about a fifth of its hits are not listed in these tables; note: % is set by controls: 0 for no effect and ±100 for the full control effect; luciferase read-out
Cruzain inh noDet: qHTS Assay for Promiscuous and Specific Inhibitors of Cruzain (without detergent); purified cruzain, Z-FR-AMC fluorescence, no detergent; AID 1476, 2009; 200,000 compounds, 2.3% hits; Cruzipain (Trypanosoma cruzi), P25779; Potency, µM, inactives show max response, negative = inhibition, actives largely listed as inhibitors; active = well fitted curve in the direction sought with a large enough effect; inconclusive = small, poorly fitted or top-dose-only effect, or another doubt; inactive = no such curve, though single readings can be large; an effect the other way counts as inactive or inconclusive;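 note: plate controls were enzyme without inhibitor for no effect and buffer without enzyme for full effect; nearly all actives have a fitted effect of over 40% in size; top concentration of the series not given in the record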
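Detergent-free condition (0.00005% Triton X-100) in acetate buffer pH 5.5 with DTT. 1.5 nM enzyme and compound were pre-mixed 15 min, then 2 uM Z-FR-AMC substrate added; reaction progress from fluorescence change between first and third reads (60 s).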
SARS PLpro yeast: qHTS of Yeast-based Assay for SARS-CoV PLP. 330,000 compounds, 0.19% hits. AID 485353, 2010. S. cerevisiae expressing SARS-CoV PLpro, growth rescue; control for the full effect not named in the record. Potency, µM (doses to about 32.9 µM), without a hit: top-dose activity, positive = growth rescue; note: 0% is about no effect; nearly all actives have a fitted effect of over 55% in size; growth read by luminescence after 48 h
StopGo reporter: High Throughput Screening for Foot and Mouth Disease Virus Antivirals. 410,000 compounds, 1.2% hits. Potency, µM (series often up to 57.9 µM), for the others: at the highest dose signal change, negative = less light. human cells with a luciferase reporter of 2A StopGo recoding; control for the full effect not named in the record; active = well fitted falling curve with a large enough effect; inconclusive = small, poorly fitted or top-dose-only effect; inactive = no such curve, though single readings can be large or run the other way; tested in HEK293T cells; note: % is set by controls: 0 for no effect and ±100 for the full control effect; nearly all actives have a fitted effect of over 45% in size; luciferase light after 4 h
Lassa entry inh: qHTS for Inhibitors of binding or entry into cells for Lassa Virus. Lassa virus pseudotype entry inhibition, cell reporter; control for the full effect not named in the record. Potency, µM (doses to about 37.9 µM), inactives show at the highest dose activity change, negative = inhibition, actives largely listed as inhibitors. 300,000 compounds, 1.2% hits. AID 540256, 2011; active means well fitted inhibition curve with a large enough effect; inconclusive means small, poorly fitted or top-dose-only effect, or effect the other way; inactive means flat fitted curve, though single readings scatter; tested in HEK293 cells; note: % is set by controls: 0 for no effect and ±100 for the full control effect; nearly all actives have a fitted effect of over 50% in size; luciferase read-out
NS1 function inh: qHTS Assay for Inhibitors of Influenza NS1 Protein Function; S. cerevisiae slowed by influenza A NS1, growth recovery by OD600; Potency, µM (highest dose often 46.1 µM), for inactives: top-dose activity, positive = more growth; 270,000 compounds, 0.4% hits; AID 2326, 2010; note: actives are rising curves; nearly all actives have a fitted effect of over 50% in size
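Compounds were scored for reversing the slow growth caused by influenza A NS1 in S. cerevisiae, measured by optical density at 600 nm. Assay medium contained 2% galactose at pH 6.0; NS1-free yeast of the same strain were the positive control.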
RE007 growth inh: qHTS Assay for Inhibitors of the HIV-1 protein Vpr; Potency, µM (series often up to 92.2 µM), for inactives: top-dose activity change, negative = less growth; S. pombe RE007 Vpr strain, BacTiter-Glo ATP luminescence, 24 h; control for the full effect not named in the record; 360,000 compounds, 0.21% hits; active = well fitted falling curve with a large enough effect; inconclusive = small, poorly fitted or top-dose-only effect; inactive = no such curve, though single readings can be large or run the other way;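 note: % is set by controls: 0 for no effect and ±100 for the full control effect; nearly all actives have a fitted effect of over 50% in size; the assay follows cell death caused by Vpr and the record does not say whether a fall means rescue or toxicity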
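Fission yeast RE007 carrying one integrated HIV-1 vpr copy, seeded at OD 0.01 in PMG+AL medium with 23 nL pinned compound. Grown 24 h at 30 degrees; viability read by BacTiter-Glo luminescence after 5 min.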
* = called active by the depositor; ? = inconclusive; . = not tested or not shown; & = joins results of further samples; ! = a repeat was not active; [ ] = dose if it differs, or a comment. Unless noted, calls come from the whole dose curve; as a rule, active means well fitted rising curve with a large enough effect; inconclusive means small, poorly fitted or top-dose-only effect; inactive means no such curve, though single readings can be large or run the other way. Potency is the fitted concentration of half-maximal effect.

SMILES | Cruzain inh Det | MARV entry inh | Cruzain inh noDet | SARS PLpro yeast | StopGo reporter | Lassa entry inh | NS1 function inh | RE007 growth inh
CCN1/C(=C/c2cc[n+](CCCS(=O)(=O)[O-])c3ccccc23)Sc2ccccc21 | . | 9%[46.1 µM] | . | 0% | -19% | ? | . | -6%
CCOc1cc(/C=N/NC(=O)c2cccc(S(=O)(=O)N3CCCC3)c2)ccc1OCC(=O)N(C)C | . | 12%[46.1 µM] | . | -5% | 0% | -2% | . | -2%
COC(=O)c1ccccc1NC(=O)N1CCN(c2ccc(F)cc2)CC1 | . | . | . | 0% | -23% | . | 0% | -12%
CCCc1nc2ccccc2c(C(=O)OCC(=O)Nc2ccc(S(=O)(=O)N3CCOCC3)cc2)c1CC | -8.1% | ? | -2% | -2% | ? | ? | -2% | -6%
CCN(CC)c1ccc(CNS(=O)(=O)c2cc3c(cc2C)NC(=O)CO3)cc1 | 4.3% | . | -1% | . | 1% | -2%[46.1 µM] | . | .
COC(=O)c1ccc(CNC(=O)c2c3c(nc4ccccc24)CCN(Cc2ccccc2)C3)cc1 | 0.4% | -21% | -12% | -2% | -21% | 8% | 26% | -19%
CCSc1nnc(NC(=O)c2csc3c2CCC(C)C3)s1 (stereo not given) | -1.7% | -4% | 13µM* | -5% | 6% | 16% | 10% | -12%
Cc1nn(C)cc1-c1csc(N)n1 | . | 2%[46.1 µM] | . | -5% | 12% | 0% | . | 16%
CCn1cc(CNC(=O)c2cc(COc3ccc(F)cc3F)on2)cn1 | . | . | . | -1% | -15% | . | 5% | 7%
Cc1ccc(N(C(=O)NC2CCCCC2)C2=NCCCCC2)cc1 | -2.6% | -25% | 2% | -8% | 12% | 12% | -6% | 2%
Cn1nnnc1SCC(=O)N1CCN(C(c2ccccc2)c2ccccc2)CC1 | -3.5% | -18% | 5% | 13% | ? | 1% | -23% | 7%
COc1cc(O)c(NC(C)=O)c2nonc12 | -0.4% | -1% | -9% | 5% | . | 1% | -3% | -7%
CC(C)(C)C(=O)Nc1c2c(nn1-c1ccc(F)cc1)CSC2 | . | . | . | -1% | -4% | . | -13% | 16%
CCOC(=O)C1(Cc2cccc(F)c2)CCN(C(=O)C2CCCO2)CC1 (stereo not given) | . | 1%[46.1 µM] | . | -1% | -16% | ? | 3% | 4%
O/N=C(\c1ccc(Cl)cc1)c1cc2ccccc2o1 | -11% | -16% | -18% | -15% | . | ? | -98% | ?
CCc1nc2sc3c(=O)n(N)cnc3c2c2c1COC(C)(C)C2 | -1.9% | . | 17% | 16% | . | . | -7% | .
CCO[C@H]1OC(C(=O)N2CCN(Cc3ccc4c(c3)OCO4)CC2)=C[C@@H](c2ccc(C(F)(F)F)cc2)[C@@H]1CCCO | . | . | . | 1% | ? | . | -7% | 9%
O=C(c1cc(Sc2cccc(Cl)c2)nc2ccccc12)N1CCN(c2ccccn2)CC1 | . | ? | . | -2% | -24% | ? | . | 5%
CC1CCN(c2ccc(/C=N/n3nnnc3N)cc2[N+](=O)[O-])CC1 | -1.5% | 5% | -10% | -3% | 0% | ? | 3% | -7%
COC(=O)N/N=C/c1cc(Cl)cc(Cl)c1OCc1ccccc1F | -3.4% | ? | 0% | 4% | ? | -4% | 13% | -7%
CCN(CC)C(=O)N1CCN(Cc2ccc3c(c2)OCO3)CC1 | . | . | . | -1% | 23% | . | 2% | -3%
COc1ccc(CCN=C(N)NS(=O)(=O)c2ccc3ccccc3c2)cc1 | -2.0% | 4% | 12% | 7% | -12% | -22% | -2% | 17%
CC1(C)CC(CCC(=O)Nc2ccccc2Cl)C(=O)O1 (stereo not given) | 1.8% | 2% | 4% | -2% | -8% | 5% | -8% | -1%
Cc1ccc(C(=O)OCC(=O)N(C)C2CCS(=O)(=O)C2)cc1S(=O)(=O)N1CCOCC1 (stereo not given) | . | 25% | . | . | -11% | 3% | . | 6%
CCc1nc2ccc(C(=O)N3CCN(c4cccc(OC)c4)CC3)cc2nc1CC | -0.3% | -4%&-4%[46.1 µM] | ? | 0% | -22%&-21% | 15%&-14%[46.1 µM] | -3% | -6%
COc1ccc(-c2nn(CCC(=O)O)cc2CCC(=O)O)cc1 | 4.8% | 19% | -10% | -4% | -17% | 1% | 0% | 1%
Cc1ccc(CN2CCN(Cc3cn[nH]c3C3CCCCC3)CC2CCO)cc1 (stereo not given) | . | . | . | -1% | -18% | . | -1% | -22%
CC(c1ccc(O)cc1)(c1ccc(O)cc1)c1ccc(CCBr)cc1 | . | . | . | -1% | 0% | . | 3% | 8%
CCOc1ccc(S(=O)(=O)NCc2cccs2)cc1C(C)C | . | -2% | . | -1% | 41%[activator] | ? | . | 30%
CC1CCC(NC(=O)CCc2cn(Cc3ccc(F)cc3)c3ccccc23)CC1 (stereo not given) | -6.6% | . | 3% | . | 0% | ? | . | .
CC(=O)Nc1ccc(S(=O)(=O)N2CCc3ccccc3C2)cc1 | 0.4% | -17% | 2% | -5% | -1% | -2% | -1% | 11%
Cc1ccc(N2C(=O)/C(=C\c3ccco3)SC2=S)cc1 | -17% | -10% | -1% | -4% | 65%[activator] | -1% | ? | 0%
O=C(NC(=S)Nc1ccc2[nH]c(=O)[nH]c2c1)c1cc(Br)ccc1Cl | . | . | . | -1% | -16% | . | -5% | 5%
CCCn1c(SCC(=O)NC(=O)NC(C)(C)C)n[nH]c1=O | . | 0% | . | 0% | 15% | 0% | . | -8%
CCn1cnc2c1c(=O)n(Cc1ccc(C(=O)OC)cc1)c(=O)n2Cc1ccccc1 | . | ? | . | -1% | 7% | -8%[46.1 µM] | -6% | 12%
O=c1[nH]c2ccc(Br)cc2o1 | . | 16%[46.1 µM] | . | . | 2% | 11%[46.1 µM] | . | -13%
CC(C)c1ccc(/C=C/C(=O)Nc2ccc(CN3CCOCC3)cc2)cc1 | . | -2%[46.1 µM] | . | 1% | 28µM* | ? | -1% | 4%
O=C(N/C(=C/c1cccnc1)C(=O)N1CCCCCC1)c1ccccc1 | . | -5%[46.1 µM] | . | -2% | -12% | 8% | -1% | 5%
CC12CCC(=O)N1C(C(=O)Nc1ccccc1F)CS2 (stereo not given) | . | ? | . | . | -5% | 11%[46.1 µM] | . | -4%
CCOC(=O)N1CC(C)N(CC(O)CN2CCOCC2)CC1C (stereo not given) | . | 4%[46.1 µM] | . | . | 0% | 7%[46.1 µM] | . | 20%
Cc1ccc(CN(C(=O)COc2cccc([N+](=O)[O-])c2)c2ccccn2)o1 | -4.2% | 2.8µM* | -2% | . | -10% | ? | . | .
CN(C)c1ccc(NC(=O)Nc2ccc3c(c2)nnn3C)cc1 | . | -4% | . | 3% | 69%[activator] | 9% | 0% | -12%
CCOC(=O)N1CCc2c(sc3c2C(=O)NC(c2ccccc2F)N3)C1 (stereo not given) | -2.4% | ? | -10% | . | -15% | ? | . | .
O=C(NCCc1ccccc1)C1CC(c2ccccc2O)=NO1 (stereo not given) | -0.7% | 7% | 7% | 1% | . | 4% | -13% | 36%
O=C(C(c1ccccc1)C(O)c1ccccc1)N1CCOCC1 (stereo not given) | . | 1%[46.1 µM] | . | . | -3% | 15%[46.1 µM] | . | -18%
O=C1NC(=O)C(CCc2ccncc2)(CCc2ccncc2)C(=O)N1CCc1ccc(F)cc1 | . | -6% | . | -2% | 12% | ? | . | 1%
Cc1[nH]nc(NNC(=O)c2ccccc2)c1[N+](=O)[O-] | . | 6%[46.1 µM] | . | 0% | 8% | 2%[46.1 µM] | 2% | -2%
Cc1cccc(-c2cc3nc(C)cc(N4CC(C)CC(C)C4)n3n2)c1 (stereo not given) | -16% | -2% | ? | 29% | ? | 3% | 18% | -15%
Cc1nnc(SCC(=O)NNC(=O)CC#N)[nH]c1=O | 4.8% | -5% | -1% | 7% | 0% | 2% | ? | 5%
CCOc1ccc(/C=C/c2nc(C#N)c(NCCc3ccccc3)o2)cc1 | -12% | ? | -12% | . | 0% | -6%[46.1 µM] | . | .
Cc1ccc(-c2cnc(NCc3ccc(C(F)(F)F)cc3)n2C)cc1 | -2.3% | -22%[46.1 µM] | 3% | . | -22% | 1%[46.1 µM] | . | .
CCOc1ccc(OCC)c(NC(=O)c2ccc(CNc3c(N4CCOCC4)c(=O)c3=O)cc2)c1 | 4.9% | -1%&21% | ? | 7% | -17% | 5% | ? | 18%
COC(=O)c1ccc(/C=C(\C#N)c2ccccn2)cc1 | . | . | . | -6% | 68%[activator] | . | -5% | ?
CCOc1ccccc1NC(=O)C(C)CC (stereo not given) | . | 0%[46.1 µM] | . | 1% | -8% | ? | 1% | -9%
Cc1nn(Cc2ccc(F)cc2)c(C)c1NC(=O)c1cc(-c2ccco2)on1 | 1.6% | -7% | 10% | 14% | -6% | -5% | -7% | 9%
C=CCNc1nc(Nc2ccc(-c3nc4ccccc4o3)cc2)nc(N2CCOCC2)n1 | 6.7% | ? | -3% | 1% | . | -12% | 25% | -7%
CCOc1ccccc1N(CC(=O)Nc1ccc(OC)cc1OC)S(=O)(=O)c1ccccc1 | . | . | . | 1% | 28% | . | -30% | -1%
Cc1[nH]n(S(=O)(=O)c2ccccc2)c(=O)c1N=Nc1cccc(Cl)c1 | . | -1% | . | -1% | -29% | -4% | 14% | -1%
Clc1ccc(OCc2nnc(SCCN3CCCCC3)n2Cc2ccco2)cc1 | -20% | 26µM*! | -11% | 4% | -11% | -21% | -47% | -11%
COc1ccccc1OCCOc1ccc(/C=C2/C(=N)N3OC(C)=CC3=NC2=O)cc1OC | 5.1% | -20% | 7% | 2% | ? | 11% | 21% | -10%
COc1ccc(/C=N/NC(=O)c2ccc(CN3C(=O)c4cccc5cccc3c45)cc2)cc1O | . | ? | . | 1% | -4% | -4% | . | -3%

Compound activity as filed in PubChem.
